HTR2A ag: activates the mouse 5-HT2A serotonin receptor. P35363. CHO-K1 mHTR2A beta-arrestin complementation, luminescence; percent of 30 µM serotonin response. activation, % at 7.6 µM. hit rate 0.66% among 360,000;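 active = activation above a run cutoff, the mean activation of all tested compounds plus 3 SD, cut at about 14% in these data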;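 note: 0% = plate median of compound wells and 100% = 30 µM serotonin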
iPSC survival up: hiPSC single-cell survival enhancement; ATPlite luminescence; 100% = ROCK inhibitor wells, 0% = DMSO; survival enhancement, % at 20 µM; hit rate 0.044% among 360,000; AID 602274; in the data active = survival enhancement above about 18%;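 note: cells exposed to compounds for 16 hours before the ATP read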
ABHD5 PLIN5 PPI: blocks binding of human ABHD5 to perilipin-5. Q00G26+Q8WTS1. Split G. princeps luciferase complementation, luminescence, 4 h. inhibition, % at 4 µM. hit rate 0.78% among 360,000. AID 602281;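 active = inhibition above the mean inhibition across every tested compound plus 3 SD, cut at about 22% in these data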;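 note: 0% = DMSO only wells and the 100% control is not disclosed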
H9c2 protect: modulators protecting cardiomyocytes from myocardial damage; H9c2 cardiomyocytes, H2O2 injury protection, ATPLite, 2 h; AID 588492; protection from H2O2 cell death, % at 20 µM; hit rate 0.63% among 360,000;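 active = compounds giving at least 50% protection of heart cells from peroxide-induced death in the single-dose screen, raw or plate-pattern-corrected value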;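 note: 0% = DMSO wells with peroxide and 100% = DMSO wells without peroxide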
ABCB6 inh MLPCN: blocks the human ABCB6 transporter | K562-ABCB6 porphyrin accumulation, flow cytometry, 1 h; active compounds read low | Q9NP58 | hit rate 0.19% among 360,000 | AID 602162 | fluorescence ratio to DMSO, % at 10 µM;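 active = fluorescence ratio to DMSO below 75%, the collection mean minus 3 SD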;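 note: signal is porphyrin accumulated inside mitochondria; 100% equals median channel fluorescence of DMSO control wells; lower ratio means ABCB6 inhibition with less porphyrin fluorescence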
Target sequence (Q9NP58 whole entry, looked up): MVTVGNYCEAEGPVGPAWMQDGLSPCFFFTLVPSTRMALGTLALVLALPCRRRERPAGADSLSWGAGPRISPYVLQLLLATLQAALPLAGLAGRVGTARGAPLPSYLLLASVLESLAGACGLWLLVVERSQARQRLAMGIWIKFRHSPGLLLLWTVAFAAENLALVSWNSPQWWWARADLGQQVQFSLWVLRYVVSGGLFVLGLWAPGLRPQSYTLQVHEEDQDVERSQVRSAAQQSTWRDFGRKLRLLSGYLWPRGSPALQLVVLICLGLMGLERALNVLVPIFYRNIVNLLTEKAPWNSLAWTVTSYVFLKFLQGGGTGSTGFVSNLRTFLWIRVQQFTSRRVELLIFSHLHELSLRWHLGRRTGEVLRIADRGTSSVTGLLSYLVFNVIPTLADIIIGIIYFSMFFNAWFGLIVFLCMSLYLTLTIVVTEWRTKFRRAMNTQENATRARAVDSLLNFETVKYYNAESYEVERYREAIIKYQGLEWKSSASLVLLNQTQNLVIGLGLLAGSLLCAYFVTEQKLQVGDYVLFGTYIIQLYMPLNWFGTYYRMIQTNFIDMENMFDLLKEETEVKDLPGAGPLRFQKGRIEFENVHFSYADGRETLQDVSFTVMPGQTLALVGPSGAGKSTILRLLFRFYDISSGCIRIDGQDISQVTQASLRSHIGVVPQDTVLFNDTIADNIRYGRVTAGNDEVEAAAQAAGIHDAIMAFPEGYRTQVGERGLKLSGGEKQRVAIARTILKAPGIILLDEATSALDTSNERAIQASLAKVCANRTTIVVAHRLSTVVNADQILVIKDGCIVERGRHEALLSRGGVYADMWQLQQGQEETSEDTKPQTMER
The depositor's hits bear a star. An excerpt, so the mix of outcomes need not match the whole.

(1) Cc1nc2ccccc2c(-c2ccccc2)c1CC(=O)O
(2) CCN1CCN(C(=O)c2ccc(NS(=O)(=O)c3ccccc3)cc2)CC1
(3) N#Cc1ccc(OCC(O)CN2CCC(C(O)(c3ccccc3)c3ccccc3)CC2)cc1 (centres undefined)
(4) c1ccc(-c2ccc(-c3cn4c(n3)CCC4)cc2)cc1
(5) N#Cc1c(-c2ccc(Cl)cc2)c(-c2ccc(Cl)cc2)nn(CCO)c1=O
(6) O=C(O)[C@@H]1CCCC[C@@H]1C(=O)N1CCc2ccccc2C1CN1C(=O)c2ccccc2C1=O (some centres undefined)
(7) Cn1c(=O)n(C)c2cc(N3CCCCC3)c(NC(=O)c3ccccc3)cc21
(8) CCn1nc(C(=O)O)c(=O)c2cc3c(cc21)OCO3
(9) CC(C)(C)c1ccc(C(O)CCCN2CCC(C(O)(c3ccccc3)c3ccccc3)CC2)cc1 (centres undefined)
(10) O=S(=O)(c1ccc(F)cc1)n1cnc2ccccc21
assay / compound | 1 | 2 | 3 | 4 | 5 | 6 | 7 | 8 | 9 | 10
ABCB6 inh MLPCN | 99 | 93 | 99 | 94 | 100 | 94 | 96 | 71* | 94 | 99
H9c2 protect | 10 | 0 | 12 | -29 | 0 | -4 | 13 | -6 | -44 | 16
ABHD5 PLIN5 PPI | -5 | 7 | 0 | 6 | -7 | -3 | -1 | -2 | -3 | 2
iPSC survival up | -1.8 | -2.9 | -0.3 | -5.3 | 4.5 | -0.7 | -0.2 | -1.1 | -4.7 | 0.5
HTR2A ag | 3 | 2 | -16 | -3 | 1 | -2 | 3 | 3 | -8 | 6

3 structures already listed, ordered by length of the SMILES, ascending:
(10) O=S(=O)(c1ccc(F)cc1)n1cnc2ccccc21
(8) CCn1nc(C(=O)O)c(=O)c2cc3c(cc21)OCO3
(4) c1ccc(-c2ccc(-c3cn4c(n3)CCC4)cc2)cc1
assay / compound | 10 | 8 | 4
ABCB6 inh MLPCN | 99 | 71* | 94
H9c2 protect | 16 | -6 | -29
ABHD5 PLIN5 PPI | 2 | -2 | 6
iPSC survival up | 0.5 | -1.1 | -5.3
HTR2A ag | 6 | 3 | -3

Single records (already shown). Order of values: ABCB6 inh MLPCN	H9c2 protect	ABHD5 PLIN5 PPI	iPSC survival up	HTR2A ag
O=S(=O)(c1ccc(F)cc1)n1cnc2ccccc21 as listed: 99	16	2	0.5	6
O=C(O)[C@@H]1CCCC[C@@H]1C(=O)N1CCc2ccccc2C1CN1C(=O)c2ccccc2C1=O (some centres undefined) as listed: 94	-4	-3	-0.7	-2
